# From PubChem
# HNF4A DNA FP: change in binding of human HNF4A to DNA, primary screen, biochemical, fluorescence polarization, FITC-DNA | Hepatocyte nuclear factor 4-alpha (Homo sapiens), P41235 | 1 h | activity change, % at 10 µM | hit rate 0.3% among 360,000 | AID 1224865, 2016; in the data active means activity change above about 30%, passing the limit was not always enough;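 further: controls were the assay level and a saturating level of protein; the project sought stronger binding though the title names inhibitors; some compounds called inactive have numbers as strong as hits; positive values seem to mean higher polarization but the record does not say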
# Target sequence (P41235 whole entry, looked up): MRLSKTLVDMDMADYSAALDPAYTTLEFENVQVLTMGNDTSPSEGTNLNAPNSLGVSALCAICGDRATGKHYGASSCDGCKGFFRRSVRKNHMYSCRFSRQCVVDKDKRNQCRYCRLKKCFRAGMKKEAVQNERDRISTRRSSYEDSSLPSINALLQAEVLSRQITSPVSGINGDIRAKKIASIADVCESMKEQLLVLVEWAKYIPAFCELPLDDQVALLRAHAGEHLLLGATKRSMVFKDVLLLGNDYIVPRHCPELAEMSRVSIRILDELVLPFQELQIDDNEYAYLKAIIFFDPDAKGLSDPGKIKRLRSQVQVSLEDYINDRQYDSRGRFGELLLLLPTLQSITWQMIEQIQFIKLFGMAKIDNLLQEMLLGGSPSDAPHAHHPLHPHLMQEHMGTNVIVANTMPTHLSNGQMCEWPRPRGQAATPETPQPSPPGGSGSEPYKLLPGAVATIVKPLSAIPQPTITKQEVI
# FGF22 binding: binders of human FGF22 protein, primary screen, FGF22 synaptogenesis inhibitor project, biophysical, thermal shift, single point; Fibroblast growth factor 22 (Homo sapiens), Q9HCT0; recombinant FGF22 thermal shift, SYPRO orange fluorescence; percent of sucrose octasulfate shift, DMSO zero; calls only at 9.99 µM; hit rate 1.5% among 340,000; AID 651658, 2012;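 active means melting point raised past a set limit in the mean and every replicate; three in four hits are not shown here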
# Target sequence (Q9HCT0 whole entry, looked up): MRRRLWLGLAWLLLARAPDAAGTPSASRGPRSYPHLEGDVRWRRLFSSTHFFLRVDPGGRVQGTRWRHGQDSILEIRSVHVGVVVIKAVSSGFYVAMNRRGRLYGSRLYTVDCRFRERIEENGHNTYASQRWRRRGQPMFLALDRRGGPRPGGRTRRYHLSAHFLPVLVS
# UCH37 DUB inh: inhibitors of human UCH37 deubiquitinase, primary screen, biochemical, Ub-AMC cleavage, fluorescence; purified proteasome/UCH37; inhibition, % (test concentration not listed); hit rate 0.33% among 330,000; AID 588478, 2011; Ubiquitin carboxyl-terminal hydrolase isozyme L5 (Homo sapiens), Q9Y5K5;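 active means mean of two replicates above 20%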;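 further: 0% = compound-free wells with enzyme and 100% = wells lacking proteasome; stock transfer was 100 nL into about 20 µL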
#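 Schedule: 30 min plus 25 min, room temperature / Material: human UCH37 within purified proteasomes / Technique: AMC fluorescence intensity at 355/460 nm / Buffer or medium: pH 7.4 Tris-HCl (50 mM) with ovalbumin, ATP-MgCl2, DTT / Controls: wells without proteasome as full block, compound-free enzyme plus substrate as uninhibited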
# ALR inh: inhibitors of human ALR sulfhydryl oxidase, primary screen, biochemical, H2O2 detection, HRP-luminol luminescence, single point. FAD-linked sulfhydryl oxidase ALR (Homo sapiens), P55789. purified ALR, DTT oxidation. inhibition, % (test concentration not listed). hit rate 3.8% among 290,000. AID 485317, 2010;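 active means mean and each replicate at 75% or more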;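 further: stock transfer was 7.5 nL into about 7.5 µL; 0% = neutral wells and 100% = wells with inactivated enzyme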
# E coli growth: E. coli growth inhibition, primary screen, OD600. hit rate 0.21% among 330,000. AID 1053175, 2014. OD600 absorbance (concentration not given with the values). Escherichia coli growth, 23 h; stronger effect = lower value;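 active means OD600 absorbance below the run mean of sample wells minus 3.6 SD, in any replicate, cut at about 0.56 in these data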;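 further: stock transfer was 300 nL into about 60 µL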
# LANA-H2A inh: blockers of LANA interaction with H2A/H2B – biochemical, FP readout, HTS, primary screen. cell-free LANA-H2A/H2B peptide, fluorescence polarization. inhibition, % (no concentration beside the values). hit rate 0.6% among 320,000; in the data active means inhibition mostly above about 10%, no sharp cut-off; inactive means mostly below about 6.7%;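 further: stock transfer was 7.5 nL into about 10 µL; 0% = median of vehicle wells and 100% = median of positive control wells; one replicate is shown; the record names a cut of 25% in any replicate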
# Beta2AR agonist: beta2AR agonists driving receptor internalization, primary screen, cell-based, FAP fluorogen, flow cytometry | Beta-2 adrenergic receptor (Homo sapiens), P07550 | Am2.2-beta2AR cells; reference of the scale not given here | response, % (no concentration beside the values) | hit rate 0.43% among 340,000 | AID 504454, 2011;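 active means response above a set limit, near 3 SD of response in nonfluorescent compounds, cut at about 42% in these data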;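 further: stock transfer was 100 nL into about 11 µL; a reference agonist was the positive control; negative values mostly stem from fluorescent compounds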
# Target sequence (P07550 whole entry, looked up): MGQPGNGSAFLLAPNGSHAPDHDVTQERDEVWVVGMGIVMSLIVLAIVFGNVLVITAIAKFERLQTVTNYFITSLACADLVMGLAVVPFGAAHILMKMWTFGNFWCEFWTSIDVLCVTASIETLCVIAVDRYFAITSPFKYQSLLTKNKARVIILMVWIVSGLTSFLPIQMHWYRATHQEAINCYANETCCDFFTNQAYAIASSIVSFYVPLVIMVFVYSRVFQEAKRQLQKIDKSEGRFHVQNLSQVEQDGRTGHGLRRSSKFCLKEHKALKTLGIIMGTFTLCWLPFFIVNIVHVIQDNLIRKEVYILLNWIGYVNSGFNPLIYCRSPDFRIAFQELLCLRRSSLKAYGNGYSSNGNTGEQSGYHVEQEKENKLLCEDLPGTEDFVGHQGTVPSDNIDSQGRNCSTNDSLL
# * hit, by the source's call; i = inactive; nt = no result given. Some of the compounds tested, so the mix of outcomes need not match the whole.
Compound	HNF4A DNA FP	FGF22 binding	UCH37 DUB inh	ALR inh	E coli growth	LANA-H2A inh	Beta2AR agonist
O=C(NC1CCCCC1)c1cc2cc(Br)ccc2o1	0.6	i	-0.3	-2	0.67	3.2	6
CC1([N+](=O)[O-])COC2(OC1)C(=O)Nc1ccccc12 (stereo unspecified)	2.1	i	2.3	1	0.69	-0.9	-7
Cc1cc2cc(CNC(=O)c3ccc(C)c([N+](=O)[O-])c3)ccc2[nH]1	-4.8	i	2.5	5	0.7	-1.2	3
CCC(C)c1ccccc1OCCCN(C)Cc1ccccc1 (stereo unspecified)	-0.8	i	1.7	2	0.59	-1.0	6
COc1ccc(SC[C@H](Cc2ccccc2)N2CC[C@@H](NC(=O)OCc3ccccc3)CCC2=O)cc1	1.8	i	-0.8	-4	nt	-1.5	-1
CC(C)(C)NC(=O)C(=O)NNC(=O)COc1ccccc1	-3.4	i	3.2	-8	0.68	-1.8	-3
COc1ccc(Cn2ccnc2SCC(=O)NC2CCCC2)cc1	-1.6	i	0.6	-1	0.7	-4.6	10
CN(C)S(=O)(=O)c1cccc(NC(=S)Nc2cc(Cl)cc(Cl)c2)c1	5.1	nt	4.3	nt	0.56	-0.7	8
CCN(CC)CCC(C)OC(=O)c1ccc(O)cc1O (stereo unspecified)	-1.8	i	-2.8	9	0.67	-3.8	0
Cc1ccc(S(=O)(=O)NC(=O)NCc2ccc(F)cc2)cc1	1.3	nt	4.8	-31	0.67	-4.7	-5
COc1ccccc1-n1c(=O)c2c3c(sc2n2c(SC(C)C)nnc12)CCC3	-2.3	nt	18	-6	0.67	-2.1	-3
COc1cc(NS(=O)(=O)c2ccc(NC(=O)CN3C(=O)c4ccccc4C3=O)cc2)nc(OC)n1	1.9	nt	0.4	-10	0.65	4.2	-6
COc1ccc(/C=N/N=C2/NC(=O)C(CC(=O)O)S2)cc1OCc1ccccc1Cl (stereo unspecified)	0.4	nt	nt	92*	nt	1.7	-1
OC(COc1ccc(OCc2ccccc2)cc1)CN1CCCCC1 (stereo unspecified)	-3.5	nt	-0.4	-3	0.65	-9.0	-7
Cc1ccc(O)c(-c2cc(-c3cccc(F)c3)n[nH]2)c1	-0.7	nt	1.4	nt	0.61	-0.1	28
CCOc1ccc(Nc2cc(C)nc(N3CCOCC3)n2)cc1	-0.9	nt	-4.8	-8	0.77	2.1	-4
COc1cccc(CNc2cc(C)ccn2)c1O	4.2	i	0.3	17	0.71	-1.5	-1
O=C1CC(c2ccccc2)n2nc(NS(=O)(=O)c3ccccc3)nc2N1 (stereo unspecified)	5.9	nt	0.6	-10	0.77	2.1	-5
CCC(O)CNc1nc(-n2nc(C)cc2C)nc2sc3c(c12)CC(C)(C)OC3 (stereo unspecified)	0.7	i	-12	-2	0.63	-0.9	-10
O=C(CSc1nc2ccccc2[nH]1)NCc1ccccc1	1.3	i	0.9	-10	0.69	2.8	-6
O=C1CC(c2ccccc2)CCc2sccc2N1 (stereo unspecified)	2.2	nt	2.7	-2	0.66	4.0	-7
COc1ccccc1CCc1nnc(CCC(=O)NCC[C@@H]2C[C@@H]3C=C[C@H]2C3)o1	2.8	i	0.4	12	0.65	1.6	-9
O=c1c2ccccc2nc2n1C(CSCc1ccccc1)CS2 (stereo unspecified)	2.7	nt	1.5	-7	0.75	1.4	-3
CC(C)(C)C(=O)Nc1nnc(SCc2cccc(F)c2)s1	-1.8	i	0.0	nt	0.65	-1.1	-2
O=S(=O)(c1ccccc1)c1nnn2c1nc(NC1CCN(Cc3ccccc3)CC1)c1cc(Cl)ccc12	7.1	i	nt	-12	nt	-1.6	34
COc1ccc(CCC(=O)N2CCN(S(=O)(=O)c3cccc(C(F)(F)F)c3)CC2)cc1OC	-0.7	i	-0.3	-2	0.67	-1.6	7
CCCCc1nc2n[nH]c(N)c2c2c1CSC(C)(C)C2	3.5	nt	6.2	nt	0.79	4.0	-9
O=C(NCCSc1ccccc1)c1cncc(Br)c1	2.7	nt	3.6	nt	0.71	-5.3	-8
O=C1NCCCCC1NS(=O)(=O)c1ccc(Cl)cc1 (stereo unspecified)	1.0	i	7.1	nt	0.63	-6.0	-2
COC(=O)Cc1ccc(OCC(=O)NC2CCCC2)cc1	0.1	i	-1.8	nt	0.68	nt	-2
COc1cccc(CC(=O)N2CCC(n3nccc3NC(=O)C3CCOC3)CC2)c1 (stereo unspecified)	2.6	i	1.7	4	0.73	-2.5	-6
CC(=O)N1CCN(C(=S)c2ccc(Cl)cc2)CC1	-0.8	nt	-2.3	-10	0.71	-1.3	-1
COc1ccc(C(=O)NNC(=O)CSc2nnnn2-c2cc(OC)cc(OC)c2)cc1	-5.3	i	1.9	nt	0.65	1.5	10
NC(CO)c1cn([C@@H](CCC(=O)O)C(=O)N2CCNCC2)nn1 (stereo partly specified)	0.6	i	-0.6	-1	nt	-3.2	-5
CCOC(=O)c1ccccc1OCc1cc(/C=N/NC(=O)c2cccnc2)ccc1OC	-3.8	i	nt	12	nt	-2.2	8
CC(C)C(=O)NCCn1ccc2ccccc21	-1.9	nt	1.6	nt	0.71	2.8	-4
CCOC(=O)C1CCCN(c2c(NCCCN3CCCC(C)C3)c(=O)c2=O)C1 (stereo unspecified)	-1.9	i	2.2	1	0.72	-3.4	6
Cc1cccc2c3c([nH]c12)C(=O)CC(C)(C)S3	1.3	i	-16	-18	0.7	-0.7	-1
CN1CCC(=NNC(=O)C(=O)NC(C)(C)C)CC1	-2.5	i	3.5	-2	0.68	1.6	5
CN1CCN(CCC(=O)Nc2cccc(Br)c2)CC1	-1.9	i	2.7	nt	0.67	-0.6	-2
CCOc1ccc(OCCSc2nnnn2C2CCCCC2)cc1	1.4	nt	0.6	-4	0.71	-0.5	6
Cc1cc(C(F)(F)F)c(C#N)c(SCC(=O)Nc2nc3cc(Br)ccc3s2)n1	2.5	i	1.8	0	0.67	-3.7	0
O=C1CCCC(=NCc2ccco2)C1	1.5	i	-0.8	-10	0.72	-4.5	1
Cc1cc(/C=N/NC(N)=O)c(C)c(CO)c1	0.6	i	nt	-16	nt	10	-3
Cc1c(-c2ccccc2)n[nH]c1C(=O)NN	-4.1	i	0.6	11	0.66	5.1	-6
Cn1c2ccccc2c(=O)c2ccc(C#Cc3ccc(N)cc3)cc21	19	i	-18	0	0.76	-0.2	29
COc1ccc(S(=O)(=O)N2CCCC(C(F)(F)F)C2)cc1 (stereo unspecified)	-2.9	i	3.5	nt	0.66	-1.3	-4
Brc1ccc(-c2ccc(/C=N/Nc3nc(N4CCOCC4)nc(N4CCOCC4)n3)o2)cc1	1.0	i	nt	nt	nt	-0.4	8
CCOc1ccccc1/C=C/c1onc(C)c1S(=O)(=O)N1CCC(C(=O)NC(C)(C)C)CC1	-2.5	i	-11	-4	0.7	-0.6	17
CN(C)CCN(C(=O)c1cccs1)c1nc2cc3c(cc2s1)OCCO3	0.2	i	1.5	-8	0.68	2.0	-11
O=C(Nc1nc2nccc(-c3ccccc3)n2n1)c1ccc(F)cc1	-5.1	nt	-18	34	0.72	-0.1	-3
CC(C)Oc1cccc(C(=O)O)c1	-1.6	nt	5.4	-7	0.73	-1.9	7
Cc1nn(C(C)C(=O)NC(C)CCc2ccccc2)c(=O)c2cc3occc3n12 (stereo unspecified)	-2.8	i	3.5	3	0.68	-8.7	-4
O=C(C=C(C(=O)c1ccccc1)c1ccccc1)c1ccccc1	0.8	i	3.4	nt	0.74	nt	6
COc1ccc(OC)c(NC(=O)c2ccc(OC3CSC3)cc2)c1	3.8	i	4.9	-18	0.71	-1.1	-3
O=C(Nc1cccc(C(=O)N2CCOCC2)c1)C1CCCC1	0.3	i	nt	nt	nt	nt	-2
COc1ccc(NS(=O)(=O)c2ccc(C)c(C(=O)NCCCN3CCCC3=O)c2)cc1	5.9	i	2.4	nt	0.67	-3.7	-1
Cc1ccc(/C=C/S(=O)(=O)NCCC(=O)NCc2ccc(F)cc2)cc1	-4.4	i	-0.8	-1	0.65	-3.6	-2
O=[N+]([O-])c1cccc(CN2CCN(Cc3ccco3)CC2)c1	2.3	i	-0.2	2	0.66	-0.5	3
CCN(c1ccccc1)S(=O)(=O)c1c(C)noc1C	3.9	i	2.2	nt	0.6	nt	-10

# New compounds follow:
Compound	HNF4A DNA FP	FGF22 binding	UCH37 DUB inh	ALR inh	E coli growth	LANA-H2A inh	Beta2AR agonist
O=C(Nc1cccc(NC(=O)c2ccccc2Cl)c1)c1ccc([N+](=O)[O-])o1	-3.9	i	nt	-34	nt	-3.4	15
Cc1cc(C)n(CC(=O)NNC(=O)COc2ccc(Cl)cc2Cl)n1	3.4	i	2.7	-7	0.69	-0.1	-3
COc1ccccc1NS(=O)(=O)c1ccc(C)c(C(=O)NCC(c2ccco2)N(C)C)c1 (stereo unspecified)	1.5	i	-0.8	nt	0.68	0.0	-2
Cc1ccccc1CN1C[C@@H]2C[C@@H](c3cn(C)nc3-c3ccccc3)N3CCC[C@@]23C1=O	3.0	i	2.8	-5	0.67	-1.3	7
COc1cc(NC(=O)CN2CCN(c3ccccc3F)CC2)c(C)cc1[N+](=O)[O-]	-0.8	i	2.7	-12	0.73	2.2	1
O=C(NN=C(Cc1ccccc1)Cc1ccccc1)c1ccncc1	1.2	i	2.0	nt	0.67	-4.6	-2
CCOc1ccc(NC(N)=O)cc1	-3.2	i	-0.6	-3	0.67	-7.4	4
CCNc1nc2c(c(=O)[nH]c(=O)n2C)n1Cc1ccc(F)cc1	5.6	i	2.2	15	0.73	4.2	3
COC(=O)c1ccccc1Nc1ccnc(Cl)n1	-0.6	i	-4.3	0	0.7	-5.0	4
CC(C)COP(=O)(OCC(C)C)C(O)c1ccc(F)cc1 (stereo unspecified)	-0.1	nt	0.0	-12	0.69	0.4	0
Cc1cc(C)n(C(C)CC(=O)N2CCc3ccccc32)n1 (stereo unspecified)	4.9	i	3.1	-20	0.73	1.2	-1
O=C(NC(=S)Nc1ccc(N2CCCCC2)c(Cl)c1)c1ccc2c(c1)OCCO2	8.8	nt	nt	2	nt	2.4	2
CCC(C)(C)C1CCc2[nH]nc(C(=O)O)c2C1 (stereo unspecified)	-4.5	i	-1.0	-1	0.69	-2.7	5
Cc1ccc(S(=O)(=O)N2CCC(C(=O)N3CCC[C@H]3C(=O)NCC(C)C)CC2)cc1	-4.9	i	0.5	-3	0.65	0.1	-2
CC(C)CCn1c(NCCN(C)C)nc2c1c(=O)[nH]c(=O)n2C	-0.6	nt	-1.2	31	0.67	-0.9	-2
O/N=C/c1cccnc1Sc1ccccc1	-0.9	i	nt	-9	nt	3.4	-9
Cc1ccccc1C(=O)O/N=C(\N)c1cccc([N+](=O)[O-])c1	-7.8	nt	nt	55	nt	-0.1	0

# Profiles as entered above.
# CC(C)CCn1c(NCCN(C)C)nc2c1c(=O)[nH]c(=O)n2C in the list: HNF4A DNA FP: -0.6; FGF22 binding: nt; UCH37 DUB inh: -1.2; ALR inh: 31; E coli growth: 0.67; LANA-H2A inh: -0.9; Beta2AR agonist: -2
# COc1ccccc1NS(=O)(=O)c1ccc(C)c(C(=O)NCC(c2ccco2)N(C)C)c1 (stereo unspecified) in the list: HNF4A DNA FP: 1.5; FGF22 binding: i; UCH37 DUB inh: -0.8; ALR inh: nt; E coli growth: 0.68; LANA-H2A inh: 0.0; Beta2AR agonist: -2
